# Compound activity as filed in PubChem.
# H5N1 CPE = MDCK cell protection from H5N1 avian flu. cytopathic effect, luminescence, 72 h; stronger effect = higher value; no value below 0 was filed and about half of the inactive calls have no number; reference of the scale not given here. inhibition, % at 50 µM. hit rate 0.07% among 96,000; in the data active = inhibition above about 25%
# The depositor's hits bear a star; i = inactive.
SMILES,H5N1 CPE
COc1cc(OC)cc(C(=O)NCC(=O)OC2CCOC2=O)c1 (configuration not stated),0.0
CC(=O)Nc1ccc(S(=O)(=O)Nc2nc3ccccc3nc2N2CCCC2)cc1,1.2
CNC(=O)NCC12CC3CC(CC(C3)C1)C2,0.4
O=C(OCc1cnc(Cl)s1)c1cccc(Cl)c1Cl,i
Cc1cc(C(=O)O)c(=O)[nH]c1C,i
O=C(O)CNC(=O)c1ccccc1NC(=O)c1ccco1,0.4
Cc1ccc(CS(=O)(=O)CCC(=O)NCc2ccc3c(c2)OCO3)cc1,i
CCNS(=O)(=O)c1ccc(C(=O)Nc2ccccc2)cc1,i
COc1ccc2cc(CN(Cc3ccco3)C(c3nnnn3C3CCCCC3)C(C)C)c(=O)[nH]c2c1 (configuration not stated),3.5
COc1ccc(C(=O)N2CCN(S(=O)(=O)N3CCOCC3)CC2)cc1OC,i
CN(Cc1ccccc1)S(=O)(=O)c1ccc2[nH]cc(C(=O)NCC3CCCO3)c(=O)c2c1 (configuration not stated),2.0
O=C(Cn1c(O)c(/C=C2\C=Nc3ccccc32)sc1=O)Nc1ccc2c(c1)OCO2,i
Oc1ccc(Cl)cc1/C=N/c1nccs1,0.2
Cn1c(SCc2ccc(C#N)cc2)nnc1-c1cccc(Cl)c1,0.5
Cc1cc(NC(=O)CSc2nnc(Cc3ccccc3)o2)no1,0.3
COC(=O)c1c(NC(=O)CSc2nnnn2-c2ccccc2)sc2c1CCCC2,1.1
C/C(=C\c1ccccc1)C(=O)n1nnc2ccccc21,i
COc1ccc(NC(=O)N(CCO)Cc2cc3c(C)cc(C)cc3[nH]c2=O)cc1,i
CSc1nc2ccc(NS(=O)(=O)c3ccc(Cl)s3)cc2s1,i
Cc1cc(Cl)ccc1Oc1ncc(CN2CCN(c3ccccc3)CC2)s1,i
Cc1ccc(/C=C2\SC(=S)N(Cc3ccccc3)C2=O)o1,0.6
COC(=O)C1=C(C)NC(C)=C(C(=O)OC)C1C(=O)OCC(=O)N1c2ccccc2CC1C (configuration not stated),i
COCCN(CCOC)C(=O)c1c[nH]c2ccc(S(=O)(=O)N(C)c3ccc(F)cc3)cc2c1=O,i
COCCNC(=O)CN(c1ccc(C)cc1)S(=O)(=O)c1ccc(SC)cc1,i
Cc1nc(-c2ccccc2)sc1C(=O)CSc1ccccc1,i

# A second format for some results above.
canonical_smiles | H5N1 CPE
Cc1cc(C(=O)O)c(=O)[nH]c1C | i
O=C(O)CNC(=O)c1ccccc1NC(=O)c1ccco1 | 0.4
Cc1ccc(CS(=O)(=O)CCC(=O)NCc2ccc3c(c2)OCO3)cc1 | i
CCNS(=O)(=O)c1ccc(C(=O)Nc2ccccc2)cc1 | i
COc1ccc2cc(CN(Cc3ccco3)C(c3nnnn3C3CCCCC3)C(C)C)c(=O)[nH]c2c1 (configuration not stated) | 3.5
COc1ccc(C(=O)N2CCN(S(=O)(=O)N3CCOCC3)CC2)cc1OC | i
CN(Cc1ccccc1)S(=O)(=O)c1ccc2[nH]cc(C(=O)NCC3CCCO3)c(=O)c2c1 (configuration not stated) | 2.0
O=C(Cn1c(O)c(/C=C2\C=Nc3ccccc32)sc1=O)Nc1ccc2c(c1)OCO2 | i
Oc1ccc(Cl)cc1/C=N/c1nccs1 | 0.2
Cn1c(SCc2ccc(C#N)cc2)nnc1-c1cccc(Cl)c1 | 0.5
Cc1cc(NC(=O)CSc2nnc(Cc3ccccc3)o2)no1 | 0.3
COC(=O)c1c(NC(=O)CSc2nnnn2-c2ccccc2)sc2c1CCCC2 | 1.1
C/C(=C\c1ccccc1)C(=O)n1nnc2ccccc21 | i
COc1ccc(NC(=O)N(CCO)Cc2cc3c(C)cc(C)cc3[nH]c2=O)cc1 | i
CSc1nc2ccc(NS(=O)(=O)c3ccc(Cl)s3)cc2s1 | i
Cc1cc(Cl)ccc1Oc1ncc(CN2CCN(c3ccccc3)CC2)s1 | i
Cc1ccc(/C=C2\SC(=S)N(Cc3ccccc3)C2=O)o1 | 0.6
COC(=O)C1=C(C)NC(C)=C(C(=O)OC)C1C(=O)OCC(=O)N1c2ccccc2CC1C (configuration not stated) | i
COCCN(CCOC)C(=O)c1c[nH]c2ccc(S(=O)(=O)N(C)c3ccc(F)cc3)cc2c1=O | i
COCCNC(=O)CN(c1ccc(C)cc1)S(=O)(=O)c1ccc(SC)cc1 | i
Cc1nc(-c2ccccc2)sc1C(=O)CSc1ccccc1 | i

# Remaining list, next part:
SMILES,H5N1 CPE
CCOC(=O)c1cnn(-c2nc3c(C)cccc3s2)c1C(F)(F)F,i
CCOc1ccccc1-c1cc(C(=O)N/N=C/c2ccc3c(c2)OCO3)c2ccccc2n1,i
CC(C)NC(NC(=O)Cc1ccccc1)C(Cl)(Cl)Cl (configuration not stated),0.5
Cc1cc([N+](=O)[O-])nn1CC(=O)NNC(=S)Nc1ccc([N+](=O)[O-])cc1,0.1
COc1ccc(OCC(=O)Nc2ccc(N3CCOCC3)cc2)cc1,i
FC(F)(F)c1cccc(N2CCc3cn[nH]c32)c1,i
O=C1CC(N2CCN(c3ccc(Cl)c(Cl)c3)CC2)C(=O)N1 (configuration not stated),0.3
NC(=O)N1c2ccccc2CC(=O)c2ccccc21,0.0
CC(=O)c1c(C)nc(-c2ccc(Cl)cc2)nc1NC(=O)C(C)C,2.0
Cc1c(C(=O)Oc2ccc(-c3cnc4ccccc4n3)cc2)cccc1[N+](=O)[O-],0.9
O=C(NC1CCCCC1)C(c1ccccc1)N1CCC2(CC1)OCCO2 (configuration not stated),i
Cc1ccccc1C(=O)Nc1ccc2nc3n(c(=O)c2c1)CCC3,0.7
O=C(Nc1nccs1)c1ccc(Cl)c(S(=O)(=O)N2CCCCC2)c1,0.4
COc1ccc(-c2nc3cc(NC(=O)c4ccc5c(c4)OCO5)ccc3o2)cc1,0.1
N#CC1=C(N)C(C#N)(C#N)C(c2cccnc2)C2COCC=C12 (configuration not stated),i
N#CC1=C(N)SC(N)=C(C#N)C1c1cccc(Oc2ccccc2)c1,i
CC(Nc1cc(N2CCCC2)ccc1[N+](=O)[O-])c1ccccc1 (configuration not stated),0.4
Cn1c(NC(=O)c2ccccc2C(F)(F)F)cc(=O)n(C)c1=O,0.2
Cc1noc(C)c1C(=O)Nc1sc(C)c(-c2ccccc2)c1C#N,i
CCOC(=O)N1CCC(O)(c2cc(C)c(C)cc2C)CC1,i
COc1ccc(-n2c(Cc3cccs3)nnc2SCC(=O)Nc2ccc3c(c2)OCCO3)cc1,1.6
CCc1nnc(NC(=O)CN2CCC(O)(c3ccccc3OC)CC2)s1,i
CCOC(=O)c1ccc(CNC(=O)CSc2nc(NC(=O)c3ccccc3)c3c(C)c(C)oc3n2)cc1,i
O=C(O)CCc1ccc(S(=O)(=O)N2CCOCC2)cc1,0.7
CCCCNC(=O)c1cc(-c2ccc(OC)c(OC)c2)on1,0.2
# (listing goes on)
SMILES,H5N1 CPE
Cc1ccc(N2CC(C(=O)NC3=NCCS3)CC2=O)cc1 (configuration not stated),i
CSCC[C@H](NC(=O)NCCC1=CCCCC1)C(=O)O,i
CCCCNC(=O)CCCn1c(=S)[nH]c2cc3c(cc2c1=O)OCO3,1.7
O=C(Nc1c(F)cc(F)cc1Br)c1cc2nc(C(F)F)cc(C(F)F)n2n1,i
Cc1c(C(=O)N2CCCC2)sc(NC(=O)c2cccc(Cl)c2)c1C#N,0.3
CCOC(=O)Cn1nc(C)c2c1CCCC2=O,i
CCN(CCO)Cc1cn[nH]c1-c1ccc(C)c(C)c1,0.3
O=C(CSCc1ccc(F)cc1)Nc1ccccc1,i
O=C(Cn1c(-c2ccco2)nc2ccccc21)N1CCCCC1,i
COc1ccccc1NC(=O)c1ccc(NS(=O)(=O)c2c(C)noc2C)cc1,i
Cc1ccc2c(CC(=O)Nc3ccc(N4CCN(C)CC4)cc3C)coc2c1,i
O=C(C[n+]1ccc(C(=O)N/N=C/c2ccc(OCc3ccccc3)cc2)cc1)c1ccccc1,i
O=C1CC(=Nc2ccccc2)NN1c1ccccc1,0.2
NNC(=O)CN1C(c2cccc(Cl)c2)=Nc2ccc(Br)cc2C1c1ccccc1 (configuration not stated),i
CC(C)(C)c1ccc(S(=O)(=O)O/N=C2/CCCCC2c2ccc([N+](=O)[O-])cc2[N+](=O)[O-])cc1 (configuration not stated),i
Clc1ccccc1Oc1cnc2ccccc2n1,0.8
O=C(c1ccco1)N1CCN(CCOCCOc2cccc3ccccc23)CC1,i
CCOC(=O)Cn1c(=O)oc2cc(S(=O)(=O)N3CCc4ccccc43)ccc21,1.1
Nc1nncn1C(=O)c1cc(Br)ccc1Cl,i
CC(C)C(=O)Nc1cc2c(cc1C(=O)c1ccccc1)OCCO2,1.3
Cc1ccc(Cn2ncc3c(N4CCOCC4)ncnc32)cc1,i
CCn1c(SCC(=O)Nc2ccc(S(=O)(=O)Nc3ccccn3)cc2)nnc1-c1ccncc1,1.0
Cc1onc(-c2ccccc2Cl)c1C(=O)Nc1c(C)n(C)n(-c2ccccc2)c1=O,0.1
Cc1cc(N2CCCCC2)nc(N2CCOCC2)n1,i
Cc1cc(C)c(S(=O)(=O)c2ccccc2)c(OC(=O)c2ccc(Cl)cc2Cl)n1,i
# More records
SMILES,H5N1 CPE
Cc1nc(CCNC(=O)c2ccccc2)cs1,i
Cc1c(Cl)c([N+](=O)[O-])nn1CC(=O)NCc1ccco1,1.1
COc1ccc(-c2ccnc(SCC(=O)N3CCOCC3)n2)cc1,1.2
O=C(CN(C(=O)c1ccc2c(c1)OCCO2)c1ccccc1)NCC1CCCO1 (configuration not stated),1.8
CC(=O)c1c(N2CCN(C(=O)C3CCCO3)CC2)nc(=S)n(-c2ccccc2)c1C (configuration not stated),i
O=C(CN1CCN(c2ccccn2)CC1)Nc1ccc(OCc2ccccc2)cc1,2.7
COC(=O)CSc1nc2nc(C)c(Br)cc2[nH]1,1.2
CCCNS(=O)(=O)c1ccc(CCC(=O)NCc2ccco2)cc1,i
O=C(Nc1ccccc1C(=O)N1CCOCC1)c1cccc(S(=O)(=O)N2CCCC2)c1,i
COC1Cc2ccccc2N(C(=O)N2CCN(CCO)CC2)c2ccccc21 (configuration not stated),0.5
O=C(CN1C(=O)C2C3C=CC(C3)C2C1=O)Nc1nc(SCc2ccc(Cl)cc2)n[nH]1 (configuration not stated),i
COC(=O)C1=C(N)Oc2cc(C)n(CCCn3ccnc3)c(=O)c2C1c1ccc(Cl)cc1 (configuration not stated),0.8
COc1ccc(Nc2nc(NCc3ccco3)nc(N/N=C/c3ccccc3)n2)cc1,i
COc1ccc(-c2noc(Cc3cccs3)n2)cc1,i
COC(=O)c1sccc1NC(=O)c1ccc(Br)o1,1.2
CCN1CCN(C(=S)Nc2ccc([N+](=O)[O-])cc2)CC1,i
Nc1nnnn1/N=C/c1ccccn1,0.3
Cc1ccc(S(=O)(=O)N2CCCC2)cc1C(=O)O,i
Cn1nnc2cc(C(=O)N3CCC(c4ccccc4)C3)ccc21 (configuration not stated),0.8
COc1cccc(OC)c1C(=O)Nc1ccc2c(c1)OCCO2,6.2
Cn1c(-c2sc3ccccc3c2Cl)n[nH]c1=S,i
O=C(NCC1CCCO1)c1ccc2c(c1)N(Cc1ccccc1)C(=O)CS2=O (configuration not stated),i
CC(C)C(=O)c1cc2c(cc1NC(=O)c1cccs1)OCCO2,i
CC1CSc2nc3sc4c(c3c(=O)n21)CCCC4 (configuration not stated),2.0
CCCCN(C)CCNS(=O)(=O)c1ccc2c(c1)n(C)c(=O)c(=O)n2C,2.3
# Going on with the list:
SMILES,H5N1 CPE
O=C(O)CCc1ccc(-c2ccc(Cl)cc2)n1CC(=O)O,i
COc1cc(C(=O)Nc2ccc3c(c2)OCCO3)ccc1OC(F)F,i
COc1ccc(/C(O)=C/c2nc3ccccc3n(-c3ccccc3)c2=O)cc1,i
COc1nc(NCC(C)C)nc(Oc2ccc(OCc3ccccc3)nn2)n1,0.0
Cc1cc(C)n(-c2ccc(C(=O)C(C#N)c3nc4ccccc4n3C)cc2)n1 (configuration not stated),i
COc1ccc(S(=O)(=O)N2CCCC2)c(C)c1C,i
CC1(C)CC(=O)C=C(Nc2ccc(F)cc2F)C1,0.9
C=CCn1c(N)c(C(=O)NCCC2=CCCCC2)sc1=S,i
CC(C)CN1C(=O)c2ccc(NC(=O)c3cccs3)cc2C1=O,i
COCCNC(=O)c1cc(-c2cccc(OC)c2)on1,i
Cn1cc(C(=O)N2CCN(c3ccccn3)CC2)c(=O)c2cc(S(=O)(=O)N3CCOCC3)ccc21,i
CCOC(=O)C(O)(c1ccc(N(CC)S(=O)(=O)c2ccccc2)cc1)C(F)(F)F (configuration not stated),1.8
CCn1c(SCC(=O)Nc2nccs2)nnc1-c1cc2cccc(OC)c2o1,0.1
CC1=CC(C)(C)N(C(=O)c2ccc(F)cc2)c2cc3c(cc21)OCO3,1.4
CN(C)c1ccc(/C=C2\NC(=S)N(Cc3ccccc3)C2=O)cc1,0.5
CC(=O)c1ccc(CCCC(=O)O)cc1,i
COc1ccccc1-n1c(SCC(N)=O)nc2c(c1=O)SCC2,1.6
COc1cccc(CNC(=O)Cn2cc3c(n2)CCCC3)c1,0.7
CC1(C)Cc2c(ccc3ccccc23)C(=O)N1,i
Cc1cc(-c2nsc(=O)o2)c(S(C)(=O)=O)s1,0.5
CC(C)(C)C(=O)Nc1cc2nn(-c3ccccc3)nc2cc1Cl,i
CCN(CC)C(=O)c1n[nH]c(=O)c2ccccc12,i
CCOC(=O)N1CCN(C(=O)CNS(=O)(=O)c2cccs2)CC1,0.4
O=S1(=O)CCN(Cc2ccccc2Cl)CC1,i
CCCn1c(NCc2cccs2)nc2ccccc21,i
# The listing continues.
SMILES,H5N1 CPE
O=C(CCN1CCN(c2ccccc2)CC1)Nc1ccc2c(c1)OCO2,0.3
Cc1ccc2c(c1)C1(C(=O)N2C)N2CC3(C)CN1CC(C)(C2)C3=O (configuration not stated),i
C=CCn1c(N)c(C(=O)NCc2ccco2)sc1=S,2.6
COc1ccc(CNCC(O)COCc2cccs2)cc1 (configuration not stated),i
NC[C@@]12CCCC1C1CCC2C1 (some centres not stated),i
CCC(CC)C(=O)Nc1cccc(/C(C)=N\NC(=O)c2ccc(C)s2)c1,0.1
O=C(NC1CC1)c1ccc(CSCc2cccc(F)c2)o1,2.5
COCCN1CCn2c(nc3cc(NC(=O)c4cccs4)ccc32)C1,0.2
COc1ccc(N(CC(=O)NC(C)(C)C)S(=O)(=O)c2ccccc2)cc1OC,i
Cc1ccc(C(=O)CN(C(=O)c2ccc(Cl)c(Cl)c2)N2C(=O)C3CCCCC3C2=O)cc1 (configuration not stated),0.8
CCc1nnc(NC(=O)c2ccc(COc3ccccc3)o2)s1,2.1
COC(=O)c1sccc1NC(=O)c1csc2c1CCCC2,3.6

# This is a subset, so the mix of outcomes need not match the whole.
